SmPrx2 inh: Schistosoma Mansoni Peroxiredoxins (Prx2); S. mansoni Prx2 activity coupled to TGR/GSH (TGR is thioredoxin glutathione reductase), NADPH fluorescence loss, qHTS; some inactives read as strong as hits; Potency, µM; 65,000 tested, 0.07% active; AID 448, 2006; active means full or partial inhibition curve with a strong effect at the top dose; inconclusive means weaker partial or single-point curve; inactive means no accepted curve; also: series up to 57 µM; many of its hits are not listed in these tables
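Activity is read as the drop in NADPH fluorescence (365/450 nm), recorded every 30 sec for 8 min after H2O2 addition. Prx2 is coupled to TGR-driven NADPH oxidation through glutathione, in phosphate buffer pH 7.4.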
LT uptake inh: qHTS Assay for Anthrax Lethal Toxin Internalization; 70,000 tested, 0.67% active; AID 912, 2007; Cells, anthrax lethal toxin internalization, FRET ratio (460/530); Potency, µM (series often up to 40 µM), for the others: top-dose activity change, negative = inhibition, hits mostly inhibitors; active = well fitted falling ratio curve with the 530 nm signal flat; inconclusive = other ratio curves, or a change in one channel alone; inactive = flat curves in the ratio and both channels; the % refers to the ratio; also: % is scaled to controls: 0 for no effect and ±100 for the full control effect; nearly all actives have a fitted effect of over 50% in size; tested in ME-180 cells; beta-lactamase reporter
Active calls of the source: *; ? = inconclusive; . = no result given; [ ] = another dose, or the depositor's remark. Potency is read from the fitted curve at half-maximal effect.

Second line of a record – LT uptake inh, SmPrx2 inh
> Cn1c(Cn2nnc3ccccc32)nnc1SCC(=O)N1c2ccccc2CCc2ccccc21
→ -6.2%, >57
> Cn1c(NC(=O)c2ccc(C(C)(C)C)cc2)cc(=O)n(C)c1=O
→ -2.1%, >57
> COC(=O)c1c(C(=O)OC)c2ccncn2c1Cl
→ -21.4%, >57
> O=C1N(S(=O)(=O)c2ccccc2F)C(=O)C2(CCCC2)N1S(=O)(=O)c1ccccc1F
→ -4.1%, >57
> Cc1ccccc1CS(=O)(=O)CCC(=O)NCCCN1CCN(c2ccccc2F)CC1
→ -9.9%, >57
> O=C(CCCn1c(=O)c2ccccc2n(CC(=O)NCc2ccco2)c1=O)NCc1ccco1
→ 0.2%, >57
> CC(=O)N1CCN(S(=O)(=O)c2ccc(C)cc2)C1c1ccc(N(C)C)cc1 (configuration not stated)
→ -15.4%, .
> Cn1c(N2CCN(C(=O)Nc3ccc(C(F)(F)F)cc3)CC2)nc2ccccc21
→ -10.5%, >57
> O=C1C(C=NCCCn2ccnc2)=C(O)c2ccccc21
→ ?, .
> CCOC(=O)c1c(NC(=O)OC)sc(C(=O)N(C)C)c1C
→ ?, .
> COC(=O)c1[nH]c2ccc(C)cc2c1NC(=O)Nc1ccccc1OC
→ -23.9%, >57
> CO[C@H]1COC(=O)[C@H](C)NC(=O)C/C=C\[C@@H](C)[C@@H](NS(=O)(=O)c2ccc(C)cc2)COC(=O)[C@H](OCc2ccccc2)/C=C\[C@@H]1C
→ 0.6%[8 µM], .
> CCn1c(SCC(=O)Nc2ccc(C(=O)OC)cc2)nnc1-c1cccs1
→ -5.7%, >57
> CCOC(=O)Nc1ccc(OC)cc1S(=O)(=O)N1CCCCC1
→ 1.5%, >57
> CCOc1cc(C)c(C(C)C)cc1S(=O)(=O)NCc1ccccn1
→ -5.9%, >57
> CC(C)c1ccc(N2CC(C(=O)Nc3nccs3)CC2=O)cc1 (configuration not stated)
→ -11.2%, >57
> COc1ccccc1NC(=O)N(Cc1ccc2c(c1)OCO2)Cc1nc2ccccc2c(=O)[nH]1
→ -7.6%, >57
> O=C(NCC1CCCO1)C(C(=O)c1ccccc1)n1cc(Cl)ccc1=O (configuration not stated)
→ ?, >57
> CCSc1nc(-c2cccs2)nc2c1c(=O)n(C)c(=O)n2C
→ 8.2%, >57
> O=C(CN1CCCCCC1)Nc1ccc(F)c(F)c1F
→ 3.4%, >57
> O=C(CSc1nc2ccccc2[nH]1)c1cccs1
→ 11.7%, >57
> COc1ccc(N(CC(=O)Nc2ccc(OC)c(Cl)c2)S(=O)(=O)c2c(C)noc2C)cc1
→ ?, >57
> CC(N)Cc1c[nH]c2cc3c(cc12)OCCO3 (configuration not stated)
→ -22.6%, >57
> O=c1c[n+](CCCC[n+]2cc(=O)o[nH]2)[nH]o1
→ -1.8%[8 µM], >57
> Cc1cccc(OC(=O)N2CCOCC2)c1
→ -9.9%, .
> CCOC(=O)c1nc(-c2ccc3c(c2)OCO3)[nH]c1C
→ ?, >57
> O=C1CCCc2nc(N3CCc4ccccc43)ncc21
→ 9.6%, >57
> O=C(COC(=O)C12CC3CC(CC(O)(C3)C1)C2)Nc1ccccc1OC(F)F
→ -3.6%, >57
> CCc1cc2c(N[C@@H](C)C(=O)O)ncnc2s1
→ ., >57
> CCCn1c(-c2ccc(F)cc2)nc2c(NC3CC4CCC(C3)N4C)nc(C)nc21 (configuration not stated)
→ -22.8%, .

An excerpt from above in order of length of the SMILES, low to high:
Second line of a record – LT uptake inh, SmPrx2 inh
> CC(N)Cc1c[nH]c2cc3c(cc12)OCCO3 (configuration not stated)
→ -22.6%, >57
> O=C(CN1CCCCCC1)Nc1ccc(F)c(F)c1F
→ 3.4%, >57
> CCc1cc2c(N[C@@H](C)C(=O)O)ncnc2s1
→ ., >57
> CCCn1c(-c2ccc(F)cc2)nc2c(NC3CC4CCC(C3)N4C)nc(C)nc21 (configuration not stated)
→ -22.8%, .
> COc1ccc(N(CC(=O)Nc2ccc(OC)c(Cl)c2)S(=O)(=O)c2c(C)noc2C)cc1
→ ?, >57

More compounds.
Second line of a record – LT uptake inh, SmPrx2 inh
> COCCCNC(=O)Cn1ncc2ccsc2c1=O
→ 6.4%, >57
> Cc1csc(NC(=O)c2cccs2)n1
→ -4.2%, >57
> Cc1ccc2c(c1)nnn2C1CCN(S(=O)(=O)c2ccc(C(=O)NC3CCCC3)cc2)CC1
→ ?, >57
> Cc1ccc(NC(=O)CCn2nc(C)cc2C)c(C)c1
→ 9.5%, >57
> CCOC(=O)c1cc(=O)n2[nH]c(-c3ccc(C)cc3)cc2n1
→ -4.6%, >57
> CSc1nc(N)nc(SCC(=O)c2ccccc2)c1C#N
→ ?, >57
> N#Cc1ccc(CN2CC[C@@]3(CCCN(C(=O)Oc4ccccc4)C3)C2)cc1
→ ?, >57
> CCOc1cc(S(=O)(=O)NCCc2cccc(C)c2)c(OCC)cc1-n1cnnn1
→ -10.6%, >57
> C=CCc1cccc2cc(C(=O)N3CCN(C(=O)c4ccco4)CC3)c(=O)oc12
→ 11.8%, >57
> Cc1ccc(C)c(NC(=O)CCN2CCOCC2)c1
→ 5.7%, >57
> CC=C(/C(=C/C)c1ccc(O)cc1)c1ccc(O)cc1
→ -4.7%[3.58 µM], >57
> COc1ccc2cc(C(c3nnnn3CC3CCCO3)N3CCOCC3)c(=O)[nH]c2c1 (configuration not stated)
→ -3.7%, >57
> CCC(Sc1nc2c(cnn2-c2ccc(Cl)cc2)c(=O)[nH]1)C(=O)OC (configuration not stated)
→ -4.0%, >57
> O=C(COC(=O)c1cnccn1)c1ccc(OC(=O)c2ccccc2)cc1
→ 8.4%, .
> COc1cccc(-n2c(Cc3cc(=O)[nH]c(=O)[nH]3)nnc2SCC(=O)Nc2ccccc2)c1
→ -1.6%, >57
> CCC(=O)c1ccc(OCC(O)CN2CCN(S(=O)(=O)N3CCCCC3)CC2)cc1 (configuration not stated)
→ 3.4%, >57
> O=C(c1ccc(NC2=NC3CS(=O)(=O)CC3S2)cc1)N1CCc2ccccc2C1 (configuration not stated)
→ -0.3%, >57
> CCOc1ccc(Nc2oc(-c3cccs3)nc2C#N)cc1
→ ?, .
> O=C(CCNS(=O)(=O)c1ccccc1F)NCc1ccc2c(c1)OCO2
→ 9.1%, >57
> CC(C)CN1CC2(CCN(C(=O)c3csnn3)CC2)C1
→ -1.0%, >57
> OCc1cnc[nH]1
→ -10.0%, >57
> COc1cccc(C(=O)N2CCN(C(=O)c3cccs3)CC2)c1OC
→ ?, >57
> COc1ccccc1CNC(=O)C1CCN(Cc2nc(-c3cccc(Cl)c3)oc2C)CC1
→ -3.2%, >57
> COC(=O)c1ccc(C(NC(=O)OCc2ccccc2)/C(C)=C/[C@@H](C)C(=O)Nc2ccc(OC)cc2)cc1 (some centres not stated)
→ -13.6%, .
> CCOC(=O)c1sc(NC(=O)c2noc3c2CCCC3)c(C(=O)OCC)c1C
→ -13.0%, >57
> CCOC(=O)CN1CC23C=CC(O2)C(C(=O)NC2CCCC2)C3C1=O (configuration not stated)
→ -0.5%, >57
> CCOc1cc(-c2noc(N)c2C(=O)OC)cc(OCC)c1OCC
→ 14.5%, >57
> Cn1c(/N=C/c2cc(Cl)ccc2O)nc2ccccc21
→ 6.9%, >57
> CC(=O)Oc1ccc(C)cc1N1C(=O)c2ccc(C(=O)O)cc2C1=O
→ 9.5%, .
> O=C(CCNS(=O)(=O)c1cccc2nsnc12)NCc1cccs1
→ -11.4%, >57
> COc1ccc(C2=NOC(C(=O)NC(C)C)C2)cc1 (configuration not stated)
→ 3.0%, >57
> COC(=O)c1c(C(=O)OC)c2n(c1C)CCC2
→ -1.3%, .
> COc1cc(C2CC(=O)C=C(O)C2)cc(OC)c1OC (configuration not stated)
→ -5.5%, .
> COCCn1nnnc1CN1CCN2CCCC2C1 (configuration not stated)
→ -4.2%, >57
> COc1cccc(-c2cncnc2NCc2ccccc2)c1
→ ?, >57
> Cc1ccc(Cl)cc1N1CCN(C(=O)C2CCCN(S(=O)(=O)c3cnc[nH]3)C2)CC1 (configuration not stated)
→ -16.9%, >57
> O=C(CCNC(=O)Cn1cnc2ccccc2c1=O)NCCC1=CCCCC1
→ 8.6%, >57
> O=C(O)c1ccc(COCC(F)(F)F)cc1
→ -5.9%, >57
> O=C(COc1ccccc1)N(Cc1cc2ccccc2[nH]c1=O)CC1CCCO1 (configuration not stated)
→ -2.4%, >57
> CC1(C)OC(=O)N(Cc2ccco2)C1(C)O (configuration not stated)
→ -0.8%, >57
> CCN1CCCC1CNc1ncnc2c1[nH]c1ccc(Cl)cc12 (configuration not stated)
→ ., >57
> c1cncc(CNc2cc(-c3ccoc3)ncn2)c1
→ -7.9%, >57
> NC(=Nc1ccccc1)NC(=O)c1nc(Cl)c(N)nc1N
→ ?, >57
> COc1ccccc1CN1CCC2(CCNCC2)CC1
→ -2.1%, >57
> O=C(O)CCc1ccc(-c2cccs2)n1NC(=O)c1ccc(Cl)cc1
→ -1.0%, >57
> O=C(CCCn1c(=O)[nH]c2ccccc2c1=O)N1CCN(c2ccccn2)CC1
→ 11.9%, >57
> Cc1nc(=O)c(-c2ccccc2)c(C)n1Cc1ccccc1
→ -1.5%, >57
> C=CCNc1nc(Nc2ccc(OC)cc2OC)nc(OCC)n1
→ -15.0%, >57
> CCOc1ccccc1NC(=O)CN(c1ccc(OC)cc1)S(=O)(=O)c1c(C)noc1C
→ ?, >57
> CC(C)CC1NC(=O)N(CC(=O)N2CCN(S(=O)(=O)c3ccc4ccccc4c3)CC2)C1=O (configuration not stated)
→ 8.2%, >57
> CCOC(=O)C(NC(C)=O)(Nc1ccc(S(=O)(=O)Nc2nccs2)cc1)C(F)(F)F (configuration not stated)
→ 13.9%, >57
> O=C1CCC(C(=O)N(c2ccccc2)C2(C(=O)NC3CCCCC3)CCCCC2)N1 (configuration not stated)
→ 8.3%, >57
> CC(=O)Oc1c(Cl)c(N2CCOCC2)c(OC(C)=O)c2ccccc12
→ -4.6%, .
> O=C(c1cc(S(=O)(=O)N2CCOCC2)ccc1F)N1CCN(Cc2ccccc2)CC1
→ ?, >57
> Cc1ccc(NC(=O)c2ccc(OC(=O)c3ccco3)cc2)cc1
→ -16.3%, >57
> CC(=O)c1ccc(NC(=O)N[C@@H](Cc2ccccc2)C(=O)O)cc1
→ -12.8%, >57
> C=CCn1c(-c2ccoc2)n[nH]c1=S
→ -5.6%, ?
> COc1ccc(NC(=O)c2ccc3c(c2)OCO3)cc1Cl
→ 2.0%, >57
> CCc1ccccc1NC(=O)CCc1nc(-c2ccc(C)cc2)no1
→ 0.8%, >57
> CCOc1ccc2[nH]c(=O)c(CN(CCO)C(=O)CC)cc2c1
→ -1.9%, >57

Next records
Second line of a record – LT uptake inh, SmPrx2 inh
> Cc1ccc(C)c(N2CCN(S(=O)(=O)c3ccc4c(c3)CCC(=O)N4)CC2)c1
→ -0.3%, >57
> N#CCCn1c(=O)c(-c2cc(F)cc(F)c2)nc2cnc(Nc3ccccc3)nc21
→ ?, >57
> CC(C)(C)C(=O)COC(=O)c1cccc(NC(=O)c2ccco2)c1
→ -9.8%, >57
> O=C(NCc1cccc(C(F)(F)F)c1)C1CCCN(c2ncccn2)C1 (configuration not stated)
→ -2.0%, >57
> COc1ccccc1OCC(=O)Nc1cccc(C(=O)N2CCOCC2)c1
→ ?, >57
> COc1ccc(Cc2nnc(SCC(=O)NCC3CCCO3)o2)cc1 (configuration not stated)
→ -0.6%, >57
> Cc1oc(-c2cccs2)nc1CS(=O)CC(=O)NCCCOC(C)C (configuration not stated)
→ 2.7%, >57
> Cc1ccc(CCN2CC(C(=O)NCc3ccco3)CC2=O)cc1 (configuration not stated)
→ 18.7%, >57
> COc1ccc(-c2cc(O)cc(O)c2)cc1
→ ., >57
> CCOc1ccc(-n2nnnc2SCC(=O)c2ccccc2)cc1
→ ?, >57
> O=C1Nc2cc(C(=O)N3CCN(Cc4ccccc4)CC3)ccc2SC1N1CCOCC1 (configuration not stated)
→ 6.9%, >57
> O=C(O)c1cccc(SSc2cccc(C(=O)O)c2)c1
→ -14.0%[8 µM], >57
> NC(=O)C[C@@H]1N[C@]2(C(=O)Nc3ccccc32)[C@@H]2C(=O)N(C3CCCCC3)C(=O)[C@H]12
→ ?, >57
> O=C(CSc1nn(-c2ccccc2)c(=S)s1)Nn1cnnc1
→ -22.7%, >57
> COc1ccc(S(=O)(=O)N2CCC(C(=O)Nc3ccc(OC)c(OC)c3)CC2)cc1C
→ 3.5%, >57
> Cc1nnc(SCc2ccccc2)n1N
→ -18.4%, >57
> O=C(CN1C(=O)COc2ccccc21)Nc1ccc2c(c1)OCCO2
→ 2.6%, >57
> CCCC(=O)Nc1ccc(N2CCN(C(=O)c3ccccc3C)CC2)cc1
→ -1.2%, >57
> Cc1ccc(N2CC(C(=O)NCCc3ccc(S(N)(=O)=O)cc3)CC2=O)cc1 (configuration not stated)
→ -10.4%, >57
> O=C1[C@@H]2C(Cc3ccc(O)cc3)NC3(C(=O)Nc4ccc(F)cc43)[C@@H]2C(=O)N1c1ccccc1 (some centres not stated)
→ -15.1%, >57
> O=C(c1ccco1)N1CCC2(CCCN(c3ccccc3)C2)CC1
→ -7.8%, >57
> CCC(NC(=O)c1ccccc1NC(=O)c1ccco1)C(=O)O (configuration not stated)
→ -0.4%, .
> CC(=O)c1cccc([N+](=O)[O-])c1
→ 3.7%, .
> COC(=O)c1ccc2c(=O)n(Cc3ccco3)c(SCC(=O)Nc3ccc(C)c(Cl)c3)nc2c1
→ -4.0%, >57
> COC(=O)C1=CN(C2CC2)C=C(C(=O)OC)C1c1ccccc1OC
→ ?, >57

High-throughput results (PubChem BioAssay)

The list is partial; the hit share may differ from the screen's.
